NPYLR7 ag: mosquito NPYLR7 agonism; HEK293T NPYLR7/Galpha15, GCaMP6s calcium fluorescence; activation, % at 10 µM; hit rate 0.15% among 270,000; AID 1259423; in the data active = activation above about 40%;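 note: 0% = vehicle and 100% = reference agonist at the receptor; some compounds past the cut are filed as inactive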
NPYLR7 ag max-min: recorded beside NPYLR7 ag, whose call it bears; activation, %; measured here: Max-Min RFU normalised activation; some inactives read as strong as hits;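 span of the calcium signal over five minutes; 0% = vehicle and 100% = native peptide agonist; compound fluorescence can raise it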
An asterisk follows results filed as active; & = joins results of further samples. A portion of the library. The share of hits here may be higher or lower than overall.

Value order – NPYLR7 ag, NPYLR7 ag max-min
1	O=C(Nc1cccc(F)c1)N1CCSC1c1cccs1 (centres undefined)
    5, 4
2	Cc1cc(C)cc(-c2nc3ccccn3c2NC(=O)C2CCCCC2)c1
    -1, 2
3	O=C(c1ccc(N2CCC(NC(c3ccccc3)c3ccccc3)CC2)cc1)N1CCOCC1
    21, 4
4	O=C(CN1CCN(Cc2ccccc2Cl)CC1)NN=Cc1ccc(Br)s1
    -4, -9
5	O=c1cc(O)cc(/C=C/c2ccc(O)c(O)c2)o1
    -5, 1
6	CSc1ncc(CN(C)CC2CCCN(CCc3ccc(Cl)cc3)C2)cn1 (centres undefined)
    10, 6
7	COc1ccc(F)c(CNC2CC(=O)N(C3Cc4ccccc4C3)C2)c1 (centres undefined)
    8, 2
8	C#CCOCC(O)CN(CCOC)Cc1c(-c2ccccc2)noc1N1CCCCC1 (centres undefined)
    1, 4
9	COc1ccc(-c2c(NC(=O)c3cccs3)oc3c(C)cccc3c2=O)cc1
    6, 2
10	COc1ccc(-c2cc(C(=O)N3CCN(c4cccc(C(F)(F)F)c4)CC3)nc3c(-c4ccccc4)c(C)nn23)cc1
    14, 14
11	Cc1nc(C)n(CC(C)C(=O)N2CCC3(CCCO3)CC2)n1 (centres undefined)
    8, 7
12	CCc1noc(C)c1C(=O)NC(C)Cc1cccs1 (centres undefined)
    1, 4
13	COc1ccc(CN2CCCn3cccc3C2c2ccc(C(F)(F)F)cc2)cc1 (centres undefined)
    -2, 22
14	CCNC(=O)C1(C)CCN(C=C2N=C(c3c(C)noc3C)ON2)C1 (centres undefined)
    5, 6
15	CCOc1ccc(C(=O)Nc2c(N)nc(SCCOC)[nH]c2=O)cc1
    1, 1
16	COCC(=O)N(Cc1cc(Cl)ccc1OS(=O)(=O)c1ccc(F)cc1)CC1CCCO1 (centres undefined)
    -17, -15
17	COc1ccc2c(c1)CCC/C2=N/OCC(=O)N(C)c1ccccc1
    3, 1
18	CCn1cc(CN2CCC(C(=O)Nc3ccc(-c4cccc(C)c4)cc3)CC2)c(C)n1
    -5, -7
19	Cc1cc(C(=O)Nc2cccc(-c3cccc(-c4ccc(F)cc4)n3)c2)c(C)o1
    18, 28
20	CCCCSc1oc(-c2ccco2)nc1S(=O)(=O)c1ccc(F)cc1
    -2, -4
21	COc1ccc(Cl)cc1NCCC(=O)N1CC(C)(C)C1(C)C
    1&9, -1&6
22	CCOC(=O)c1c(C)nn(-c2ccc(C(=O)NCCCc3ccccc3)cc2)c1C
    -1, -2
23	COc1ccc(-c2nccc3ccccc23)cn1
    28, 19
24	COCCCNC(=O)C1CN(C(=S)NC(C)C)CC1c1ccc(OC)cc1 (centres undefined)
    21, 14
25	CCc1ccc(S(=O)(=O)Nc2csnc2C(=O)OC)s1
    1, -1
26	COc1ccc(S(=O)(=O)Oc2ccc3c(c2)CCC(=O)N3)cc1OC
    19, 16
27	Nc1ccc(C(=O)N2CCC(c3ccnc(-c4ccc(F)c(CO)c4)c3)C2)cn1 (centres undefined)
    0, -2
28	CCCCNc1nc(CC)c2c(c1C#N)CC(C)(C)OC2
    6, 2
29	C=Cc1ccc(C(=O)N2CCC(Cc3ccc(OC)cc3)(C(=O)OCC)CC2)cc1
    2&-8, 0&-13
30	CC(C)CCN1CCN(Cc2nc3ccccc3[nH]2)CC1CCO (centres undefined)
    16, 8
31	N#Cc1ccc2ccccc2n1
    -13, -7
32	COCc1cc(C)nc(N/N=C\c2ccncc2)c1C#N
    -4, -9
33	CC(c1ccc(NC(=O)c2cc(C3CC3)[nH]n2)cc1)N1CCOCC1 (centres undefined)
    -6, -7
34	O=C(COc1ccccc1)N1CCC2(CC1)C(=O)N(CC(=O)N1CCOCC1)CN2c1ccccc1
    27, 25
35	CCC(=O)Nc1ccc(S(=O)(=O)Nc2nc(C)cc(C)n2)cc1
    14, 11
36	CCOC(=O)c1c(C)c2c(=O)[nH]nc(SCC(=O)OC(C)C)n2c1C
    3, 1
37	Cc1nc2c(cc1C(=O)NCc1ccc(N3CCCN(C)CC3)nc1)c(C)nn2C
    12, 13
38	Fc1ccc(Nc2nnc(-c3ccc(Br)s3)o2)c(F)c1
    -9, -13
39	CCc1ccc(N2CCn3c2nc2c3c(=O)n(CCCO)c(=O)n2C)cc1
    3, 0
40	CCOc1ccc(-n2nnc3c(=O)n(CC(=O)c4ccccc4)cnc32)cc1
    10, 12
41	C=Cc1cccc(CN2CCC(CNC(=O)c3ccc(=O)[nH]n3)C2)c1 (centres undefined)
    27, 17
42	COc1cc(/C=N\NC(=O)CSc2nc3ccccc3[nH]2)ccc1O
    3, 10
43	c1ccc(-c2csc3ncn4c(-c5ccccc5)nnc4c23)cc1
    6, 7
44	CN(C)Cn1c(O)c(N=NC(=O)COc2ccc(Cl)cc2)c2ccccc21
    13, 8
45	CCOc1cc(/C=N\NC(=O)COc2nc(C)cc(COC)c2C#N)ccc1OCc1ccc([N+](=O)[O-])cc1
    -1, 10
46	O=C(Nc1cccc(-c2nnc3n2CCC3)c1)OCC(F)(F)F
    9, 2
47	Cc1ccc(-c2ccc(CCC(=O)N3CCc4ccccc4C3)n2-c2ccc(CC#N)cc2)c(C)c1
    -3, 3
48	COC(=O)CC1c2cccnc2C(=O)N1Cc1ccccc1 (centres undefined)
    2, 11
49	COc1ccc(-c2csc(=Nc3ccccc3)n2CC(O)c2ccc([N+](=O)[O-])cc2)cc1 (centres undefined)
    -1, -2
50	CNC(=O)CSc1nc2c(cnn2CCO)c(=O)[nH]1
    6, 3
51	Cc1ccc(C(=O)Nc2ccc(N(C)C)cc2C(F)(F)F)cn1
    2, 0
52	CC(C)CN(CC(C)C)CN1C(=O)NC(C)(c2ccccc2)C1=O (centres undefined)
    10, 6
53	C=CCN(CC#Cc1ccccc1)Cc1ccccn1
    18, 8
54	COCCNC(=O)Nc1c[nH]c2ccccc12
    -1, -7
55	CCN(CC)CCN(C(=O)c1cc(C)n(C)n1)c1nc2c(F)cc(F)cc2s1
    3, 1
56	CC1CCCC(NC(=O)C(C)n2ncn3cccc3c2=O)C1C (centres undefined)
    6, 2
57	CCOC(=O)c1cnc(-c2ccccc2)nc1NCCCN(CC)CC
    17, 18
58	COc1ccc(-c2cnnc(NCCOc3cccnc3)n2)cc1
    20&-6, 9&-6
59	CCOC(=O)c1ccc(NC(=O)N2CCSC2c2cc(OC)ccc2OC)cc1 (centres undefined)
    6, 10
60	Cc1cc(C)cc(-n2nnc3c(=O)n(CC(N)=O)cnc32)c1
    -3, -7

Profiles from above.
CCOc1ccc(C(=O)Nc2c(N)nc(SCCOC)[nH]c2=O)cc1 as listed: NPYLR7 ag: 1; NPYLR7 ag max-min: 1
Cc1cc(C)cc(-c2nc3ccccn3c2NC(=O)C2CCCCC2)c1 as listed: NPYLR7 ag: -1; NPYLR7 ag max-min: 2

Additional records
Value order – NPYLR7 ag, NPYLR7 ag max-min
61	Cc1ccc(CCC(=O)N(C)c2ccc(-c3ccccc3)nn2)o1
    0, -1
62	Cn1c(=O)[nH]c(=O)c2c1nc(N1CCN(Cc3ccccc3)CC1)n2Cc1cccc2ccccc12
    15, 10
63	CC(C)c1ccc(-n2nc(C(=O)O)c(=O)n(Cc3cccc(F)c3)c2=O)cc1
    27, 32
64	CN(C1(C)CCS(=O)(=O)C1)S(=O)(=O)c1ccc2ccccc2c1 (centres undefined)
    -2, -4
65	CC(NCC(=O)Nc1cnccn1)c1ccccc1-n1cccn1 (centres undefined)
    25, 11
66	COc1ccc2c(c1)CCc1cc(CCC(=O)NCC3CCCO3)n(-c3ccc4ncsc4c3)c1-2 (centres undefined)
    -1, -2
67	COc1cccc(CNCC2CC(c3ccc(N(C)C)cc3)=NO2)c1 (centres undefined)
    0, -3
68	Cc1ccc(-c2cnn3c(N4CCN(c5ccccc5)CC4)cc(C)nc23)cc1
    4, 7
69	CC1(Cc2ccccc2OC(F)(F)F)C(=O)Nc2ccc(S(=O)(=O)NC3CCCCC3)cc21 (centres undefined)
    1, 4
70	COc1ccc(C=CC(=O)c2ccc(C)o2)cc1C
    3, 6
71	O=C(CCl)N1CCSC1c1ccccc1F (centres undefined)
    6, 7
72	COc1ccc(NC(=O)Cn2ncc3ccccc3c2=O)cc1Cl
    -4, -3
73	Cc1ccc(C)c(NC(=O)C(C)N2CCCCCCC2)c1 (centres undefined)
    8, 5
74	O=C(Nc1ccccc1Oc1cccc(F)c1)NC1CCS(=O)(=O)C1 (centres undefined)
    5, 4
75	N#CC1C(=N)C2=CCCC[C@H]2[C@H](c2cccnc2)C1(C#N)C#N (some centres undefined)
    3, 0
76	CN1CCn2nc(C(=O)NCc3nc(-c4ccccc4)n[nH]3)cc2C1
    17, 11
77	Fc1ccc(-c2nc(Nc3ccccc3)c3ccccc3n2)cc1
    -2, 11
78	COC(=O)c1ccccc1NC(=O)N1CCc2cc(OC)c(OC)cc2C1c1ccccc1 (centres undefined)
    1, 12
79	O=C(C1CCN(S(=O)(=O)N2CCOCC2)CC1)N1CCOCC1
    6, 3
80	CC(C)(C)c1noc(C(Cl)(Cl)Cl)n1
    -12, -12
81	COc1ccc(CCN(C)c2cc(Cl)nc(SCc3cccc(C(=O)N4CC5(C)CC4CC(C)(C)C5)c3)n2)cc1OC (centres undefined)
    6, 12
82	CC1(C(=O)O)CCCN1C(=O)c1ccc(Cl)cc1Cl (centres undefined)
    -3, -7
83	COc1cc(-c2nc(C=Nc3cccc(C)c3)c(O)o2)cc(OC)c1OC
    -7, -10
84	Cc1ccc(CCC(=O)Nc2cccc(S(=O)(=O)N=C3CCCN3C)c2)cc1Cl
    -3, -5
85	COc1cccc(-c2nccn2-c2cccc(-c3nnc(C)s3)c2)c1OC
    6, 2
86	O=C(NCc1cc2ccccc2o1)N1CCC(O)(C(F)(F)F)C1 (centres undefined)
    8, 8
87	CCCCOCCCNC(=O)c1oc2ccc(F)cc2c1C
    9, 3
88	COc1ccnc(NNS(=O)(=O)c2cccc(C#N)c2)n1
    -1, 2
89	CN(C)C(CNc1nc(-c2cccnc2)nc2c1cnn2C)c1ccccn1 (centres undefined)
    -2, 0
90	CCCCc1nnc(NC(=O)C2Cc3ccccc3S2)s1 (centres undefined)
    5, 3
91	COc1cccc(N2C(=O)CSC2c2ccc(NC(=O)Cc3ccccc3)cc2)c1 (centres undefined)
    18, 30
92	N#CCCNC(=O)CN(Cc1ccccc1)C1CCCCC1
    0, -2
93	CCOc1ccc2nc(SCC3CC3(Cl)Cl)[nH]c2c1 (centres undefined)
    -6, -6
94	O=C(c1c[nH]c2ccccc12)N1CCN(Cc2nnnn2-c2ccccc2)CC1
    -3, -4
95	CC(NCc1cccs1)c1nnc2n1CCCCC2 (centres undefined)
    2, -1
96	CCOC(=O)C1CCCN(C(=O)c2c(C)c(C)c(C)n2Cc2ccc(F)cc2F)C1 (centres undefined)
    32, 28
97	CSc1nnc(SCc2nc3sc(C(=O)O)c(C)c3c(=O)[nH]2)s1
    4, 0
98	Cc1ccc2cc(C3(O)CCN(Cc4ccc(C(N)=O)cc4)CC3)ccc2n1
    27, 10
99	C=C(C)CNc1cc(OC)c(OC)cc1F
    17, 12
100	CC1(C(=O)NS(=O)(=O)c2ccc3c(c2)CCO3)CCN1C(=O)Cc1ccc(Cl)cc1Cl (centres undefined)
    5, -1
101	CCOC(=O)c1c(NC(=O)c2cc(C)oc2C)c(-c2ccc(OC)cc2)cn1Cc1ccccc1
    4, -3
102	CC(NCC(=O)Nc1ccc(C(C)(C)C)cc1)c1ccccc1 (centres undefined)
    26, 8
103	COc1cc(/C=C2\SC(=S)N(c3cccc(C(=O)O)c3)C2=O)ccc1O
    52*, 46*
104	COc1ccc(-c2ccccc2NC(=O)C2CCCN(C3CCC3)C2)cc1 (centres undefined)
    -6, -12
105	Cc1ccc(C2c3ccsc3CCN2CC(=O)N2CCN(S(=O)(=O)c3ccc(Br)cc3)C(C)C2)cc1 (centres undefined)
    9, -2
106	COCCNc1nc2cc(-c3ccsc3)sc2c(=O)n1C
    9, 6
107	Cc1ccc(-c2cc(C(=O)NCCC(c3ccccc3)c3ccccc3)n(-c3ccccc3)n2)o1
    1, 13
108	COC(=O)c1cc(CNC(=O)C2CCCCN2C)cc(NC(=O)c2ccccc2Cl)c1 (centres undefined)
    3, 3
109	CCCC1(C(=O)N2CCN(CCC(=O)NC3CC3)CC2)CCC1
    -7, -13
110	CCCCCCn1c(N2CCN(CC(=O)OC)CC2)nc2c1c(=O)[nH]c(=O)n2C
    9, 7
111	CCc1nc2ccc(C(=O)N3CCN(C(C)=O)CC3)cn2c1N(C)CCC(C)C
    -5, -13
112	CCn1nnc2c(=O)n(C(C)C)cnc21
    1, 16
113	c1cc2c(cc1-c1nnc(SCC3CCCCO3)o1)OCO2 (centres undefined)
    1, 1
114	O=c1[nH]c(CN2CCCC2c2ccccc2)nc2cc(Cl)ccc12 (centres undefined)
    -2, -2
115	CN1CCN(NC(=O)NC2CC(=O)N(c3cccc(F)c3)C2)CC1 (centres undefined)
    3, 0
116	Cc1ccc(Cn2ncc3c(Nc4ccc(C)cc4)ncnc32)cc1
    -2, -2
117	CC(C)C(NC(=O)c1ccc2c(c1)OCO2)c1nccn1C (centres undefined)
    1, 2
118	CCC(CO)NC(=O)c1c(O)nc2c(C)cccn2c1=O (centres undefined)
    -2, 10
119	COc1ccc2c(c1)CCN(C(=O)Nc1n[nH]c(-c3ccccc3F)n1)C2
    2, -9
120	O=C(c1cnc2ccccc2n1)N1CCc2ccccc21
    9, 14
121	Cc1ccc(-n2c(-c3ccc(F)cc3)cc(C(=O)N3CCN(C(=O)CCc4ccccc4)CC3)c2C)cc1
    -4, 9

Sorted by number of heavy atoms (highest first): part of the list above.
Value order – NPYLR7 ag, NPYLR7 ag max-min
94	O=C(c1c[nH]c2ccccc12)N1CCN(Cc2nnnn2-c2ccccc2)CC1
    -3, -4
116	Cc1ccc(Cn2ncc3c(Nc4ccc(C)cc4)ncnc32)cc1
    -2, -2
115	CN1CCN(NC(=O)NC2CC(=O)N(c3cccc(F)c3)C2)CC1 (centres undefined)
    3, 0
92	N#CCCNC(=O)CN(Cc1ccccc1)C1CCCCC1
    0, -2
93	CCOc1ccc2nc(SCC3CC3(Cl)Cl)[nH]c2c1 (centres undefined)
    -6, -6
